# TAR Tat displ: HIV-1 TAR-Tat binding disruption. AID 1259389. actives 0.6% (n = 100,000). z-score (no concentration beside the values). HIV-1 TAR RNA, Tat peptide displacement FRET; hits give high values;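 further: score is relative to mean and SD of negative controls; some compounds called inactive have numbers as strong as hits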
# CDC25B CDK2 inh: human CDC25B-CDK2/CyclinA binding inhibition; HTRF CDC25B-CDK2/CyclinA binding, anti-His/anti-Flag; hits give high values; z-score (concentration not given with the values); actives 0.72% (n = 94,000);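 further: score is relative to mean and SD of negative controls; strong numbers were not always called active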
# * = called active by the depositor; / = not tested or not shown.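 How the source made its calls: active means z-score from 3 up in half or more of its runs; inactive means the rest.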 These rows are one share of the data (hit frequency here may not be typical).
SMILES,TAR Tat displ,CDC25B CDK2 inh
O=C1CCCN1CC#CCN1CCCC1,2.36,-1.93
CC(C)CC(NP(=O)(O)O[C@@H]1O[C@@H](C)[C@H](O)[C@@H](O)[C@H]1O)C(=O)NC(Cc1c[nH]c2ccccc12)C(=O)O (stereo partly specified),/,-0.97
C[C@]12N[C@H](Cc3ccccc31)c1ccccc12,/,-0.04
O=c1[nH]c2ccccc2c(=O)n1-c1cccc(Cl)c1,/,-0.56
CCC(CC)n1[nH]c(=O)c2c1NC(=O)CSC2c1ccc(OC(C)C)cc1 (stereo unspecified),1.2,0.27
COc1ccc(-c2ncnc3c(C#N)c4ccccn4c23)cc1,1.71,1.68
Cn1c(=O)n(C)c(=O)n(C)c1=O,/,-0.92
CN1CC=C(c2noc(CCC(=O)N3CCN(c4cccc(Cl)c4)CC3)n2)CC1,-0.05,-0.64
CC(C)C1c2cccn2-c2ccccc2CN1C(=O)Nc1ccccc1 (stereo unspecified),-0.12,/
COc1ccccc1C(c1c(O)c2ccccc2oc1=O)c1c(O)c2ccccc2oc1=O,/,-1.12
CC(C)=CCCC1(C)C=Cc2c(O)c3c(c(CC=C(C)C)c2O1)OC12C(CC4CC1C(C)(C)OC2(C/C=C(/C)C(=O)O)C4O)C3=O (stereo unspecified),3.08,/
COc1ccccc1CCNCc1ccc2c(c1)OCO2,-0.32,-0.38
CCC(=O)CCCCC[C@@H]1NC(=O)[C@H]2CCCCN2C(=O)C([C@@H](C)CC)NC(=O)[C@H](Cc2cn(OC)c3ccccc23)NC1=O (stereo partly specified),-1.78,/
CCn1c(CN2CCN(C)CC2)nc2ccccc21,0.34,-0.66
C[C@]12Cc3cn[nH]c3C[C@@H]1CC[C@@H]1[C@@H]2CC[C@@]2(C)[C@H]1CC[C@]2(C)O,1.92,/
Clc1ccc(C(c2ccc(Cl)cc2)C(Cl)(Cl)Cl)cc1,0.75,/
FC(F)(F)c1cccc(N2CCNCC2)c1,0.98,/
CCOC(=O)C(C)Oc1cc(C)cc2oc(=O)c3c(c12)CCCC3 (stereo unspecified),/,-0.06
COc1cc2c3c(c1OC)-c1ccccc1CC3N(C)CC2 (stereo unspecified),-9.24,/
CCOCCCNC(=O)N1Cc2ccccc2-n2cccc2C1c1cccs1 (stereo unspecified),2.05,/
CCC(C)C(=O)O[C@@H]1C[C@@]2(C)[C@H](c3ccoc3)OC(=O)CC23OC2(C)OC34[C@H](OC(=O)C(C)C)[C@@]3(O)[C@@H](OC(=O)C5(C)OC5C)[C@@]5(C)C[C@]3(O)[C@@](C)([C@H]5CC(=O)OC)C14O2 (stereo partly specified),2.76,/
C/C=C(/C)C(=O)O[C@H]1CC[C@@]2(C)[C@@H]3CC[C@H]4[C@]5(O)C[C@H](O)[C@@]6(O)[C@@H](CN7C[C@@H](C)CC[C@H]7[C@@]6(C)O)[C@]5(O)C[C@@]42O[C@]13O,1.83,/
c1cncc(CNC2CCCCC2)c1,/,-0.6
O=C(O)CCCN1CC=C(c2ccccc2)CC1,/,-1.28
N#CC1=C(N)Oc2c(c(=O)oc3ccccc23)C1CCc1ccccc1 (stereo unspecified),/,-0.73
CC1=CC[C@H]2O[C@]1(C)OC(C(C)/C=C(C)/C=C/C(O)=C1\C(=O)CNC1=O)[C@H]2C (stereo partly specified),0.48,/
CCC1c2cccn2-c2ccccc2CN1C(=O)NCCC(C)C (stereo unspecified),1.34,/
O=C(Nc1ccc2c(c1)OCCO2)N1Cc2ccccc2-n2cccc2C1c1cccs1 (stereo unspecified),-0.57,/
Cc1c(C(c2cccs2)c2c(O)c3ccccc3oc2=O)c(=O)n(-c2ccccc2)n1C (stereo unspecified),/,-1.22
C[C@H]1CC[C@@H]2[C@@H](C)[C@H]3[C@H](C[C@H]4[C@@H]5CC[C@H]6C[C@@H](O)CC[C@]6(C)[C@H]5CC[C@]34C)N2C1,2.28,/
CNC(=O)O/N=C/c1ccc(F)c(Cl)c1,/,-1.34
CCC[C@@H]1CCCCN1,-0.34,/
CCC1c2cccn2-c2ccccc2CN1C(=O)NC(C)C (stereo unspecified),1.17,/
COc1ccc(C(=O)N2CCCC2=O)cc1,/,-1.58
O=C(N1CCc2ccccc2C1)C(Cl)(Cl)Cl,/,-2.47
Fc1ccccc1CCNCc1ccc2c(c1)OCO2,0.44,-0.51

# 7 consecutive records already listed:
SMILES,TAR Tat displ,CDC25B CDK2 inh
N#CC1=C(N)Oc2c(c(=O)oc3ccccc23)C1CCc1ccccc1 (stereo unspecified),/,-0.73
CC1=CC[C@H]2O[C@]1(C)OC(C(C)/C=C(C)/C=C/C(O)=C1\C(=O)CNC1=O)[C@H]2C (stereo partly specified),0.48,/
CCC1c2cccn2-c2ccccc2CN1C(=O)NCCC(C)C (stereo unspecified),1.34,/
O=C(Nc1ccc2c(c1)OCCO2)N1Cc2ccccc2-n2cccc2C1c1cccs1 (stereo unspecified),-0.57,/
Cc1c(C(c2cccs2)c2c(O)c3ccccc3oc2=O)c(=O)n(-c2ccccc2)n1C (stereo unspecified),/,-1.22
C[C@H]1CC[C@@H]2[C@@H](C)[C@H]3[C@H](C[C@H]4[C@@H]5CC[C@H]6C[C@@H](O)CC[C@]6(C)[C@H]5CC[C@]34C)N2C1,2.28,/
CNC(=O)O/N=C/c1ccc(F)c(Cl)c1,/,-1.34

# 2 entries from above, reformatted.
N#CC1=C(N)Oc2c(c(=O)oc3ccccc23)C1CCc1ccccc1 (stereo unspecified)
  TAR Tat displ = /; CDC25B CDK2 inh = -0.73

CC1=CC[C@H]2O[C@]1(C)OC(C(C)/C=C(C)/C=C/C(O)=C1\C(=O)CNC1=O)[C@H]2C (stereo partly specified)
  TAR Tat displ = 0.48; CDC25B CDK2 inh = /

# Later entries:
SMILES,TAR Tat displ,CDC25B CDK2 inh
CC12CN3CC(C)(CN(C1)C3c1ccccn1)C2=O (stereo unspecified),0.35,-0.85
CC1c2cccn2-c2ccccc2CN1C(=O)Nc1ccc(Br)cc1F (stereo unspecified),0.36,/
COc1cc2c(cc1OC)[C@@H]1C(=O)c3ccc4c(c3O[C@@H]1CO2)CC(C(C)C)O4 (stereo partly specified),0.33,/
NC(N)=NOCC[C@H](N)C(=O)O,3.32,-1.31
O=S1(=O)N(Cc2ccc(Cl)cc2)CCCN1Cc1cccc(Cl)c1,-0.77,/
CN(C)c1ccc(C2c3cccn3-c3ccccc3CN2C(=O)Nc2ccc3c(c2)OCCO3)cc1 (stereo unspecified),-0.48,/
CCCCOc1ccc(C2SCC(=O)Nc3c2c(=O)[nH]n3C(CC)CC)cc1 (stereo unspecified),0.95,0.33
Cc1cc(C)c2c(n1)SCN(C)C2=N,/,-2.23
COC(C)C(O)(C(=O)OCC1=CCN2CC[C@H](O)[C@@H]12)C(C)C (stereo partly specified),2.82,/
Cn1c(O)c(C(=O)c2ccccc2Cl)c(=O)n(C)c1=O,2.24,-1.37
C=C1C2CC[C@H]3[C@]4(C)C[C@H](OC5OC(CO)C(OS(=O)(=O)O)C(OS(=O)(=O)O)C5OC(=O)CC(C)C)C[C@@H](C(=O)O)[C@H]4CC[C@]3(C2)[C@H]1O (stereo partly specified),-0.14,/
OCC1CCCN2CCCCC12 (stereo unspecified),/,-1.75
O=S(=O)(NCC(c1ccccc1)N1CC=C(c2ccccc2)CC1)c1ccccc1 (stereo unspecified),2.02,-0.82
C[C@@H]1C[C@@H]([C@H](O)CC2CC(=O)NC(=O)C2)C(=O)[C@@H](C)C1,1.8,/
Cc1nn(-c2nc3ccccc3s2)c2c1C(c1ccsc1)SCC(=O)N2 (stereo unspecified),-0.52,-0.88
Cc1ccc(COc2ccc(C3SCC(=O)Nc4c3c(C)nn4-c3nc(C)cc(C)n3)cc2)cc1 (stereo unspecified),0.41,0.68
CN(C)C(=O)Oc1nc(-c2cccs2)cc(C(F)(F)F)c1C#N,/,-0.58
CCCN(CCC)[C@@H]1CCc2cccc(O)c2C1,/,-0.8
COc1cccc(N2CCNCC2)c1,/,-0.18
CC1=C(O)C(=O)[C@@H]2O[C@@H]2C1=O,1.06,/
O=[N+]([O-])c1ccc(NCc2ccco2)c2nonc12,/,-1.71
C=CCN1C(=O)C2(c3ccccc31)C(C(=O)OCC)CC1CCCN12 (stereo unspecified),-0.24,/
CN(C)C(=O)O/N=C(\N)c1ccc(C2SCCS2)cc1,/,-2.36
CCC(C)C(=O)O[C@H]1[C@H](O)C2C(CN3CC(C)CCC3[C@@]2(C)O)C2C[C@]34O[C@]5(O)C(OC(=O)C(C)(O)C(C)O)CC[C@@]3(C)C5C(OC(C)=O)[C@@H](OC(C)=O)C4[C@@]21O (stereo partly specified),0.53,/
S=C1NC2=C(CCc3ccccc32)C(c2cccnc2)N1 (stereo unspecified),/,-1.26
CCOC(=O)C1(c2ccccc2)CCN(CCC(C#N)(c2ccccc2)c2ccccc2)CC1,1.77,/
CCN1CCN(c2ncnc3[nH]ccc23)CC1,1.92,-1.68
CCN1CCN(c2ncnc3ccc(Br)cc23)CC1,/,-3.77
CCCCSP(=S)(OCC)N(CC)CC (stereo unspecified),/,-1.14
COc1cc2c(cc1OC)-c1c(OC)c(OC)cc3c1C(C2)N(C)CC3 (stereo unspecified),6.26*,-6.7
CN1C(=O)CCS(=O)(=O)C1c1ccc(Cl)cc1 (stereo unspecified),0.97,-1.68
CCN1CCN(c2ncc(Br)cn2)CC1,-0.51,-1.24
COC[C@H]1OC(=O)c2coc3c2[C@@]1(C)C1=C(C3=O)[C@@H]2CCC(=O)[C@@]2(C)C[C@H]1OC(C)=O,1.59,/
CN1C(=O)CN=C(c2ccccc2)c2cc([N+](=O)[O-])ccc21,1.88,/
CC(=O)N1N=C2C3CCN(CC3)C2C1c1cccc2ccccc12 (stereo unspecified),0.27,1.12
CCc1c(CN2CCN(CC)CC2)csc1C,1.82,/
CNCCc1ccc(O)c(O)c1,/,-2.21
COc1ccc2oc3c(c2c1)NC(=O)CN=C3c1ccc(F)cc1,1.04,0.1
Clc1cncc(Cl)c1N1CCNCC1,/,-0.75
Cc1ccc(-n2nc(C)c3c2NC(=O)CSC3c2cc(C)ccc2C)cc1 (stereo unspecified),1.41,-1.19
CCC12CN3CC(CC)(CN(C1)C3c1ccccn1)C2O (stereo unspecified),-0.37,-1.43
COc1ccc(NC(=O)N2Cc3ccccc3-n3cccc3C2c2cccs2)cc1OC (stereo unspecified),1.94,/
COc1ccccc1-n1c(-c2cccs2)nc2ccccc2c1=O,0.7,0.28
Cc1cccc(-n2c(/C=C/c3ccc([N+](=O)[O-])o3)nc3ccccc3c2=O)c1,-7.44,-0.37
NC(=Nc1ccccc1)Nc1ccccc1 (tested in a mixture with another compound),/,-0.98
CC1(C)C(=O)C=C[C@@]2(C)C1C[C@@H](O)[C@]1(C)C2CC[C@@]2(C)[C@H](c3ccoc3)OC(=O)[C@H]3O[C@]321 (stereo partly specified),2.6,/
CCC(C)C(=O)c1c(O)c(C)c2oc3c(C)c(O)c(C(=O)C(C)CC)c(O)c3c2c1O (stereo unspecified),1.4,/
CC1(C)Cc2c(sc3c2C(=O)NC(c2cccnc2)N3)CO1 (stereo unspecified),-1.12,-1.87
CC[C@@H]1/C=C/C=C/C[C@H](C)[C@@H](O)[C@](C)(O)C(=O)[C@H](C)[C@@H](O)[C@H](C)C(=O)[C@H](C)[C@@H](O)[C@H](C)/C=C/C(=O)O[C@H]2[C@@H](C)[C@@H](CC1)O[C@@]1(CC[C@@H](C)[C@@H](C[C@H](C)O)O1)[C@@H]2C,3.11,/
Nc1ccc(Oc2ccc(N)cc2)cc1,-1.4,-3.76
CC(N)Cc1c[nH]c2ccc(OCc3cccs3)cc12 (stereo unspecified),/,0.68
C(=N\c1ncn[nH]1)/Nc1ncn[nH]1,/,-1.2
COCc1cc(C2SCC(=O)Nc3c2c(-c2ccccc2)nn3-c2ccccc2)ccc1OC (stereo unspecified),/,-2.23
CC1CN(C(=O)CCC(=O)N2CCC3(CC2)OCCO3)c2cc(Cl)ccc2O1 (stereo unspecified),/,-0.45
CC(=O)N1N=C2C3CCN(CC3)C2C1c1ccccc1C (stereo unspecified),1.61,1.67
CCOc1cc(C2SCC(=O)Nc3n[nH]c(C)c32)ccc1O (stereo unspecified),1.89,-0.34
COC(=O)C1=C(N)Oc2c(c(=O)oc3ccccc23)C1c1cccnc1 (stereo unspecified),/,-1.07
COC(=O)c1sc2nc3c(cc2c1N)CN(C(C)C)CC3,0.3,-1.37
CC(=O)Nc1ccc(C(c2c(O)c3ccccc3oc2=O)c2c(C)n(C)n(-c3ccccc3)c2=O)cc1 (stereo unspecified),/,6.07
COc1ccc(OC)c(NC(=O)N2Cc3ccccc3-n3cccc3C2C)c1 (stereo unspecified),-0.03,/
# Next section
SMILES,TAR Tat displ,CDC25B CDK2 inh
C=CC[N+]12CN3CN(CN(C3)C1)C2,/,4.34*
COC(=O)NC(=S)Nc1ccccc1NC(=S)NC(=O)OC,1.37,/
O=C(C1c2ccccc2C(=O)N2CCc3ccccc3C12)N1CCC2(CC1)OCCO2 (stereo unspecified),/,4.05
COc1ccc(C[C@@H]2NC[C@@H](O)[C@@H]2OC(C)=O)cc1,2.76,/
O=c1c2ccccc2nc(/C=C/c2ccccc2)n1-c1ccccc1F,/,-1.91
CCCOc1ccc(C2SCC(=O)Nc3n[nH]c(C)c32)cc1 (stereo unspecified),2.65,-2.63
c1cncc(C2CC(c3cccs3)n3nnnc3N2)c1 (stereo unspecified),/,-0.33
Cc1ccc2cc3c(ccc4ccccc43)c3c2c1CC3,0.55,/
Nc1ccc(Cc2ccc(N)cc2)cc1,1.93,-1.58
CCN(CC)P(=S)(N(CC)CC)N(CC)CC,/,-2.1
Cc1ccc(-n2nc(C)c3c2NC(=O)CSC3c2ccc(OC(C)C)cc2)cc1 (stereo unspecified),-0.7,-2.49
CC1N=C(c2ccccc2)c2ccccc2N(Cc2cc(=O)n3ccccc3n2)C1=O (stereo unspecified),2.61,/
COc1cccc(C=O)c1OC,0.73,/

# Quoted at random: 2 compounds from above, in no set order.
SMILES,TAR Tat displ,CDC25B CDK2 inh
c1cncc(C2CC(c3cccs3)n3nnnc3N2)c1 (stereo unspecified),/,-0.33
Nc1ccc(Cc2ccc(N)cc2)cc1,1.93,-1.58
